# gsp antag = gsp mutant antagonism. gsp-mutant cells, cAMP HTRF, 30 min; control for the full effect not named in the record. Potency, µM (top dose mostly 76.9 µM), without a hit: at the highest dose activity change, negative = inhibition, most hits filed as inhibitors. actives 0.4% (n = 340,000); active = falling curve of any shape with a large fitted effect; inconclusive = falling curve, mostly with a smaller effect; inactive = flat or rising curve; cell line not stated here;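 note: intracellular cAMP measured with PDE inhibitor Ro 20-1724 present during compound exposure; potency is the fitted concentration of half-maximal effect; % is set by controls: 0 for no effect and ±100 for the full control effect; nearly all actives have a fitted effect of over 65% in size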
#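 G418-selected cells were plated in DMEM/10% FBS for 16-24 h at 37C, then treated with compounds plus the PDE inhibitor […] (300 uM solution added) for 30 min at 37C. Intracellular cAMP was measured by HTRF after 30 min lysis at room temperature.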
# TRPML1 ag = activates the human TRPML1 channel; actives 0.12% (n = 410,000); TRPML1-expressing cells, Ca2+ dye fluorescence, FDSS; host cell line not named in the record; reference of the full effect not given here; activation, % (test concentration not listed); Q9GZU1; in the data active = activation above about 50%; inconclusive = about 30% to 50%; inactive = below about 30%; note: 0% is about no effect; the text of the record puts the active cut at 80%
# Target sequence (Q9GZU1 whole entry, looked up): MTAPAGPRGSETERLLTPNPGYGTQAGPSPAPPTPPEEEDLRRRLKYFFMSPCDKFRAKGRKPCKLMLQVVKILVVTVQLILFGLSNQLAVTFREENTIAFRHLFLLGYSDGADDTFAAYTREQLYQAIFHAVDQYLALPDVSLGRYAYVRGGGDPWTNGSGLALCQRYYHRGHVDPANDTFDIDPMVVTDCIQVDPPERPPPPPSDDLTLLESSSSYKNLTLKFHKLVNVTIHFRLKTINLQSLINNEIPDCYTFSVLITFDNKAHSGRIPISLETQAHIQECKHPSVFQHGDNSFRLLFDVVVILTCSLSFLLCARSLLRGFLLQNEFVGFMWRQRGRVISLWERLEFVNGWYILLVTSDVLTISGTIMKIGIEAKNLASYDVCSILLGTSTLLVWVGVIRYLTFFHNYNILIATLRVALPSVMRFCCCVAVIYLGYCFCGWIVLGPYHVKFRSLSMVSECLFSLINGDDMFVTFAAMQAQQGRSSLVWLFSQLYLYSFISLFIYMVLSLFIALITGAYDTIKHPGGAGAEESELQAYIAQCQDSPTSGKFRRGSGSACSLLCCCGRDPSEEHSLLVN
#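 Kinetic FDSS Ca2+ read in Tet-induced TRPML1-DL cells (ABD Ca8 dye plus quencher, 45-90 min RT loading): baseline, then compound, then 110 s agonist window; EC80 agonist 54-4 at 4uM final added afterwards for a 110 s antagonist window.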
# ClpP mod = qHTS Assay for Activators of ClpP. ATP-dependent Clp protease proteolytic subunit (Bacillus subtilis (strain 168)), P80244. actives 1.9% (n = 340,000). Potency, µM (top dose mostly 57.5 µM), for inactives: at the highest dose activity change, negative = active. purified B. subtilis ClpP, FRET peptide cleavage, 20 min. AID 651965, 2013; active = well fitted falling curve with a large enough effect; inconclusive = small, poorly fitted or top-dose-only effect; inactive = no such curve, though single readings can be large or run the other way; note: potency is the fitted concentration of half-maximal effect; the source files actives as falling curves though it sought activators and does not explain the sign; nearly all actives have a fitted effect of over 65% in size; many hits overshoot -100%
# Target sequence (P80244 whole entry, looked up): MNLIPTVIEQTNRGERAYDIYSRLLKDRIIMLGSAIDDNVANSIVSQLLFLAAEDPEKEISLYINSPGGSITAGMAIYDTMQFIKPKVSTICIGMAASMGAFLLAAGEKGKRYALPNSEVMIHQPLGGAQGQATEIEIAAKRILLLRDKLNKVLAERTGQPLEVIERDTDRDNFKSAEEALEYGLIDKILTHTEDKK
#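 FRET quenching reversal measured ClpP activation: 10 microg/mL B. subtilis ClpP at pH 8 with the FRET-FV decapeptide, read at 430 nm after 320 nm excitation. The 20-min minus 0-min signal was scaled between DMSO/no-enzyme wells and ADEP (5.8 microM final).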
# TRPML1 inh = inhibitors of human TRPML1 channel; actives 0.02% (n = 390,000); TRPML1-inducible cells, Ca2+ dye fluorescence, FDSS; hits give low values; inhibition of EC80 agonist-evoked calcium signal; activity change, negative = inhibition, % (no concentration beside the values); Q9GZU1; in the data active means activity change below about -50%; inconclusive means about -30% to -50%; inactive means above about -30%;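 note: stimulus is agonist 54-4 at its EC80 concentration; % is set by controls: 0 for no effect and ±100 for the full control effect; compound concentration not given in the record; the text of the record puts the active cut at -80%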
#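 Tet-induced TRPML1-DL cells loaded with Ca8 no-wash calcium dye were read kinetically on FDSS. Compound addition was followed by EC80 agonist 54-4 (4 uM final); inhibition was read over 110 s.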
# gsp agonist = agonists of gsp mutant (McCune-Albright syndrome); AID 624287; actives 0.13% (n = 340,000); gsp mutant cells, cAMP HTRF, 30 min; control for the full effect not named in the record; Potency, µM (series often up to 76.9 µM), inactives show top-dose activation (cAMP increase), hits mostly activators; active = well fitted activation curve with a large enough effect; inconclusive = small, poorly fitted or top-dose-only effect, or another doubt; inactive = no such curve, though single readings can be large or run the other way; cell line not stated here;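 note: phosphodiesterase inhibitor Ro 20-1724 added with compounds to block cAMP breakdown; potency is the fitted concentration of half-maximal effect; nearly all actives have a fitted effect of over 60% in size; about a fifth of the inactives were tested at one dose only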
#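 Cells stably selected in G418 were plated at 2000/well, grown 16-24 hr, then given compounds in DMSO with the PDE inhibitor […] (300 uM solution added) for 30 min at 37C; cAMP was read by HTRF.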
# Menin-MLL FL inh = menin-MLL binding inhibition, fluorescein peptide | 290,000 tested, under 10 active | Fluorescence polarization, fluorescein-MLL peptide displacement from menin | FP activity change, % at 61.4 µM | AID 1766; inconclusive = falling polarisation curve, or a change in total fluorescence; inactive = total fluorescence flat and polarisation flat or rising; no compound was filed as active; the % refers to the polarisation; negative = inhibition;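 note: % of control where 0% means no effect; inhibitors lower the polarisation; unlabelled MLL peptide was the positive control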
# Starred values were filed as active, the others as inactive; ? = inconclusive; . = not tested or not shown; [ ] = dose if it differs, or a comment.
SMILES,gsp antag,TRPML1 ag,ClpP mod,TRPML1 inh,gsp agonist,Menin-MLL FL inh
CCc1ccccc1NC(=O)c1ccc(F)c(S(=O)(=O)N2CCN(c3cccc(Cl)c3)CC2)c1,.,1.3,-4.4%,2,.,.
COCCCN1C(=O)C(CC(=O)NCc2cccc3ccccc23)CC(C(=O)N2CCOCC2)=C1C (configuration not stated),.,-0.1,0.3%,-17,.,.
O=S1(=O)CCN(Cc2ccncc2)CC1,.,-0.9,0.2%,2,-2%,.
CO/N=C/C(C#N)=C/c1ccc(OC)c(OC)c1,-6%,0.3,.,5,-16%,0.0
CCC(=O)N1CCc2cc(S(=O)(=O)NC(C(=O)NCc3ccccc3)C(C)C)ccc21 (configuration not stated),2%,-0.1,-2.0%,-11,13%,-1.0
CN(Cc1ccc(Cl)cc1)C(=O)c1ccccc1SCC(=O)N1CCCC1,-10%,1.1,-2.1%,11,17%[15.4 µM],.
Cn1cccc1C(=O)NC(=O)COC(=O)CNC(=O)CNC(=O)c1ccc(Cl)cc1Cl,2%,-0.3,.,-1,9%,-7.2
COc1cc2c(cc1OC)CN(C(=O)c1cccc(S(=O)(=O)N(C)C)c1)CC2,-4%,2.4,-1.6%,82,1%,12
COCCN1CC(C(=O)NCCc2nc(C)c(C)s2)CCC1=O (configuration not stated),10%,6.1,0.6%,7,?,.
COc1ccc(-c2nc3ccc(Cl)cn3c2NC2CCCCC2)cc1SC1CCCCC1,-3%,-0.3,-13%,-4,.,.
CCCCN(C)C(=O)c1cc2c(s1)-c1ccccc1S(=O)(=O)C2,5%,.,-1.2%,.,23%,-0.8
COc1cccc(C(C(=O)NCC2CCCO2)N(C(=O)Cn2nnc3ccccc32)c2ccc(NC(C)=O)cc2)c1 (configuration not stated),7%,0.1,.,9,?,0.0
COc1cc(NC(=O)CSCC(=O)Nc2cccc(C(F)(F)F)c2)c(Cl)cc1Cl,-8%,-0.2,0.4%,-1,5%,13
COC(=O)c1ccc(NC(=O)CNC(=O)C2CCCCC2)c(C)c1,6%,0.2,-1.6%,9,2%,1.9
O=C(c1cc(-c2ccccc2)n[nH]1)N1CCc2c([nH]c3ccccc23)C1c1ccccn1 (configuration not stated),-10%,-0.9,.,2,-30%,2.1
Cn1nnnc1SCc1ccccc1[N+](=O)[O-],-1%,-0.7,1.7%,4,4%,2.1
OCC[C@@H]1C[C@@H](O)[C@H](O)[C@@]2(CCCc3ccccc3O2)O1,5%,-0.1,-0.6%,-5,.,0.5
Cc1nn2c3c(cnc2c1-c1ccccc1)C(=O)CCC3,3%,0.3,4.6%,9,?,0.9
C/C(=N/NC(=O)CNS(=O)(=O)c1ccccc1)c1ccc(Br)cc1,1%,-1.4,10%,-8,-7%[15.4 µM],1.2
Cc1ccc(S(=O)(=O)N2CCCCC2)cc1NC(=O)c1ccc2c(c1)OCO2,-3%,0.2,-3.8%,-1,-33%[inhibitor],3.4
CC(CC(=O)Nc1ccc(Cl)c(S(=O)(=O)N2CCOCC2)c1)c1ccccc1 (configuration not stated),?,0.1,-4.5%,-9,-7%[15.4 µM],.
Oc1[nH]c2ccccc2c1/C=N/c1nccs1,-12%,0.0,0.5%,-17,3%,?
CCOC(=O)C1CCN(c2c(C(=O)c3ccc(OCC)cc3)cnc3ccc(OC)cc23)CC1,.,1.2,-7.5%,-12,.,.
COC(=O)c1cc(S(=O)(=O)N2CCN(c3cc(Cl)ccc3C)CC2)c[nH]1,.,1.8,-1.1%,-6,.,.

# 3 entries out of the list above, ordered by their value in Menin-MLL FL inh, low to high.
mol | Menin-MLL FL inh
CCC(=O)N1CCc2cc(S(=O)(=O)NC(C(=O)NCc3ccccc3)C(C)C)ccc21 (configuration not stated) | -1.0
CO/N=C/C(C#N)=C/c1ccc(OC)c(OC)c1 | 0.0
OCC[C@@H]1C[C@@H](O)[C@H](O)[C@@]2(CCCc3ccccc3O2)O1 | 0.5

# (further entries)
SMILES,gsp antag,TRPML1 ag,ClpP mod,TRPML1 inh,gsp agonist,Menin-MLL FL inh
Cc1ccsc1/C=N/n1c(=S)[nH]nc(C)c1=O,4%,0.4,-5.0%,-1,-34%[inhibitor],-0.7
CCN(c1cccc(C)c1)C(CNS(=O)(=O)c1ccccc1)c1ccccc1 (configuration not stated),.,4.2,-9.5%,18,.,.
NC(=S)N/N=C/c1coc2ccc(O)cc2c1=O,10%,-0.5,1.0%,0,3%,0.6
CC(C)Oc1ccc(S(=O)(=O)N2CCCCC2)cc1NC(=O)C1CSC2(C)CCC(=O)N12 (configuration not stated),-13%,-0.4,-6.5%,46,?,.
CC(C)(C)OCC(O)CN1CCN(C(=O)c2ccccc2)CC1 (configuration not stated),8%,-0.1,-2.3%,19,-19%[15.4 µM],-0.1
CCOc1ccc2nc(N3CCCC(C(=O)NCCCN4C(C)CCCC4C)C3)sc2c1 (configuration not stated),10%,-0.8,0.9%,10,-1%,.
CCOc1cccc(OCCCn2c(-c3ccc(Br)cc3)nc3ccccc3c2=O)c1,.,-0.6,-1.6%,-17,.,.
COCCn1c(SCC(=O)N2CCCCC2)nc2cccnc21,3%,-0.2,-0.6%,7,-12%,5.7
Cc1cc(=O)[nH]c2ccc(Cl)cc12,13%,1.0,-16%,-11,-53%[inhibitor],5.2
N=c1c(S(=O)(=O)c2ccc(Cl)cc2)cc2c(=O)n3ccccc3nc2n1CCN1CCOCC1,2%,-0.2,?,5,-7%,8.0
COc1ccc(Nc2ccc([N+](=O)[O-])cn2)cn1,2%,-1.0,-0.3%,-7,-11%,?
CCOCCCN1CC(C(=O)NCc2ccc3c(c2)OCO3)CC1=O (configuration not stated),5%,-0.1,-1.7%,32,-1%[15.4 µM],-8.9
COc1ccc(NC(=O)CSc2nnc(CC(=O)Nc3ccc(F)cc3)n2C)cc1,-33%,0.7,.,-4,20%[15.4 µM],1.0
CC(C)(C)NC(=O)CSc1nnc(-c2ccncc2)o1,20%,-0.7,-2.2%,16,10%,.
Cc1nnc(NCCO)c2ccccc12,13%,-0.2,-0.1%,-3,-38%[inhibitor],3.1
CCCCNC(=S)N1CCN(c2ccccc2Cl)CC1,2%,0.6,0.2%,-4,0%[15.4 µM],-4.0
CCCC/C(O)=C1\C(=O)CCCC1=NCCc1c(C)[nH]c2ccc(OC)cc12,-24%,1.7,.,-5,-7%[15.4 µM],0.0
CCOC(=O)c1c(C)nc2c(c1C)c(=O)oc1ccccc12,-21%,0.3,0.4%,-10,25%,6.0
CCc1ccccc1N(CC)C(=O)CCc1nc(-c2ccc(C)cc2)no1,?,5.2,-1.9%,33,?,8.3
Cc1ccc(NS(=O)(=O)c2cnc(N)nc2)c(C)c1,.,0.4,-2.4%,-8,.,.
O=C(CN1CCS(=O)(=O)CC1)N/N=C/c1cccc(C(F)(F)F)c1,8%,0.0,-1.9%,-12,?,1.3
CCCc1c(C(=O)Nc2ccc(F)cc2C)cnn1-c1ccccc1,3%,-0.7,-2.6%,-1,-10%[15.4 µM],7.7
FC(F)(F)c1cc(N2CCN(Cc3ccccc3)CC2)c2ccccc2n1,-10%,1.8,1.1%,16,-5%[15.4 µM],-0.1
O=C(CSCc1ccccc1)N=Nc1c(O)[nH]c2ccccc12,-1%,5.9,-1.8%,3,6%,-2.1
CN1C(=O)N(C)C2CC1N(C)C(=O)N2C,2%,0.5,-0.9%,-18,-14%,4.5
Cc1cc(C(=O)N/N=C/c2ccc(C)o2)c2ccccc2n1,14%,-1.3,1.0%,5,-2%,4.3
O=C(CCS(=O)(=O)c1cc2c(cc1Cl)NC(=O)CO2)NCc1ccc(F)cc1,7%,0.1,1.3%,1,-41%[inhibitor],-2.9
COc1cccc(CNC(=O)c2ccc(C)c(S(=O)(=O)N3CCCCC3)c2)c1,-11%,-0.1,1.1%,-3,-9%[15.4 µM],.
Cc1ccc2c(c1)N(C(=O)CCC(=O)Nc1ccc(F)cc1F)CC(C)O2 (configuration not stated),.,1.7,0.1%,6,.,.
Cc1ccc(S(=O)(=O)NC(CC(=O)n2nc(C)cc2C)c2ccccc2)cc1 (configuration not stated),3%[15.4 µM],3.3,-3.9%,-13,17%,1.1
O=C(/C=C/c1ccc([N+](=O)[O-])cc1)c1cccnc1,-9%,0.8,-1.7%,16,14%,-0.9
Cc1csc(C(C)N(C)C(=O)c2ccc(OC3CCN(Cc4ccccn4)CC3)cc2)n1 (configuration not stated),1%,-0.5,-3.6%,-9,19%[15.4 µM],.
COc1ccc(C2CC(C(F)(F)F)n3nc(C(=O)NCc4c(C)nn(C)c4C)c(Cl)c3N2)cc1 (configuration not stated),-20%,1.2,-1.1%,2,-16%,2.2
Cc1nnsc1C(=O)Nc1ccc(S(=O)(=O)N2CCCC(C)C2)cc1 (configuration not stated),-10%,-0.5,-0.5%,-2,?,1.6
CC1(c2ccccc2)NC(=O)N(CC(=O)Nc2cc(C(F)(F)F)ccc2N2CCCCC2)C1=O (configuration not stated),-7%,0.7,1.3%,3,-33%[inhibitor],.
O=C(CSCc1ccccc1)NCCc1ccc(F)cc1,-6%,-1.0,.,-2,1%,4.7
COc1ccccc1NC(=O)N(C)C[C@H]1OCc2cnnn2CCCC(=O)N([C@H](C)CO)C[C@H]1C,.,0.0,-2.5%,11,-31%,.
CC(NC(=O)Cc1ccc(NC(=O)N2CCSc3ncccc32)cc1)c1ccccc1 (configuration not stated),.,0.4,-15%,8,.,.
CC1CCN(S(=O)(=O)c2ccc3c(c2)N(CC(=O)NCCCN2CCCC(C)C2)C(=O)CO3)CC1 (configuration not stated),9%,-0.7,-0.2%,-6,-39%,-4.4
CC(=O)Nc1cccc(NC(=O)CCNC(=O)c2ccccc2)c1,4%,-0.8,1.7%,-8,6%[15.4 µM],-22
CCCN(CCC)CCCNC(=O)CC(C(=O)N1CCc2ccccc21)n1ccnc1 (configuration not stated),9%,-0.2,-1.6%,11,4%,-6.8
COc1ccc(-c2cc(C)no2)cc1S(=O)(=O)N1CC(C)Oc2ccccc21 (configuration not stated),.,0.4,0.0%,17,.,.
O=C(NC1CCCCCCC1)c1cc(-c2ccccn2)nc2ccccc12,-3%,1.1,.,12,-5%[15.4 µM],4.6
CCOC(=O)c1cc(C)n(CC2CCC(C(=O)Nc3cccc(C(C)=O)c3)CC2)c1C (configuration not stated),.,-0.4,-2.7%,18,.,.
CCN1CCN(c2ccc(S(=O)(=O)N3CCCCC3)cc2NC(=O)c2ccc([N+](=O)[O-])o2)CC1,5%,-0.2,0.9%,0,13%[15.4 µM],.
O=C(NCc1ccncc1)c1c(F)c(F)c(F)c(F)c1F,9%,1.6,-4.1%,12,17%,4.5
COC(=O)c1ccc(CSc2nc3ccccc3c(=O)n2N)cc1,-8%,3.5,.,32,?,0.4

# Bioassay records deposited in PubChem by National Center for Advancing Translational Sciences (NCATS).

# Compounds as they come. About 2.1% of those tested had a hit in this group.
